RGS16-Gao: modulators of RGS16 binding to Galphao, primary screen, biochemical, human proteins, multiplexed bead flow cytometry. actives 0.38% (n = 220,000). bead-based flow cytometry RGS16-Galphao binding, fluorescence; actives lie on both sides. binding response (% of control), % at 10 µM;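 active = below 25% or above 175%, edge rows of some plates excepted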;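 note: Galphao activated by GDP with aluminum fluoride before binding; 100% = wells without compound and 0% = beads without RGS; some results beyond the cut were filed as inactive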
Target sequence (O15492 whole entry, looked up): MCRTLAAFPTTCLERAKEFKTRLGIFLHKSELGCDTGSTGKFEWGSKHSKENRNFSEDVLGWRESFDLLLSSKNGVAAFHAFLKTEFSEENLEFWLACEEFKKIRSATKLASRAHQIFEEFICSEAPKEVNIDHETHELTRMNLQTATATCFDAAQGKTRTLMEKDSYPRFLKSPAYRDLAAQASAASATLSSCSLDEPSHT
Target sequence (P09471 whole entry, looked up): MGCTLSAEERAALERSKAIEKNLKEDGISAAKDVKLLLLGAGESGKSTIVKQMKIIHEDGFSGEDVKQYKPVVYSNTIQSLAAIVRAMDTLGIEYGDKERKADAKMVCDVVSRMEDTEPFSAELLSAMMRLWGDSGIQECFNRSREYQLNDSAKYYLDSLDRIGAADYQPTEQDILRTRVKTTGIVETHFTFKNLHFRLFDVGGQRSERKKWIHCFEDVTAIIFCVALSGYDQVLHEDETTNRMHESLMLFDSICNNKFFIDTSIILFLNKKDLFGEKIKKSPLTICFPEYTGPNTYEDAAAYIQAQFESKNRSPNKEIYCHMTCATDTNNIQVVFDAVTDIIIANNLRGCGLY
INS promoter inh: inhibitors of insulin promoter-driven GFP, primary screen, imaging, TRM-6 cells (human fetal islet line), eGFP reporter, cell count; reporter expression induced with tamoxifen; inhibition, % at 2 µM; actives 0.9% (n = 130,000); AID 1273, 2008;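 active = inhibition above the mean plus 3 SD, with well images judged a real hit on visual review, cut at about 60% in these data, passing the limit was not always enough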
HSV replic up: enhancers of HSV replication in host cells, fold increase, host cell viability; HSV replication augmentation in cells; maximum fold increase; actives 0.005% (n = 220,000); AID 1956, 2009;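 active = peak rise of 1.5-fold or more in the series; tested in PC3 cells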;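 note: first round at 10 µM; read as green reporter fluorescence; hits show the peak of a series up to 25 µM; 1 = signal of infected wells without compound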
PKD1 kinase inh: inhibitors of human PKD1 kinase, biochemical, fluorescence polarization | Serine/threonine-protein kinase D1 (Homo sapiens), Q15139 | PKD1 kinase fluorescence polarization assay | inhibition, %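 (about 10 µM by stock and volumes)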 | actives 0.056% (n = 200,000);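 active = inhibition of 50% or more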;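 note: controls were vehicle for no effect and a reference inhibitor for full effect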
GALR2 ag: GALR2 receptor agonists, primary screen, cell-based; GALR2-expressing cells, agonist activation read-out; actives 0.48% (n = 140,000); activation, %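 (tested at 5 µM)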; Galanin receptor type 2 (Homo sapiens), O43603;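 active = above mean plus 3 SD of all compounds, about 5% in these data, not always enough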;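 note: 0% = vehicle buffer wells and 100% = reference agonist at full effect; tested in CHO reporter cells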
Target sequence (O43603 whole entry, looked up): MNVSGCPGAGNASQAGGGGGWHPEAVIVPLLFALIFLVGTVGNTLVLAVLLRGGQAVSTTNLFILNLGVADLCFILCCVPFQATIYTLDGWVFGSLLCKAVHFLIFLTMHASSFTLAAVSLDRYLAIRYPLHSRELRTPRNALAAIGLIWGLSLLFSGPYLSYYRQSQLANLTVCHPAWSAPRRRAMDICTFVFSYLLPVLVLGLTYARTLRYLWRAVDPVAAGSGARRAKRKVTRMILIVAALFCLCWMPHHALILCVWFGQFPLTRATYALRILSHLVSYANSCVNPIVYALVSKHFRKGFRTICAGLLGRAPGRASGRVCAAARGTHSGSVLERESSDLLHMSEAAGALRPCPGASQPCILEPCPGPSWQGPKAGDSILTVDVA
INS promoter inh cell count: second read-out of INS promoter inh, no call of its own (marks repeat the call); normalized cell count, %; measured here: cell count, toxicity; reference of the scale not given here;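 cells exposed to compound for 48 h; stained nuclei by imaging scaled within each plate; lower means fewer cells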
HSV replic up primary fold: also measured in HSV replic up; calls as there; fold increase; compound at 10 µM; measured here: primary screen fold increase 10 uM; tested in PC3 cells;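 GFP signal in the first replicate; 1 = infected wells without compound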
The depositor's hits bear a star; i = inactive; / = no result given. Outcome played no part in choosing rows. About 1.3% of those tested had a hit in this group.

SMILES	RGS16-Gao	INS promoter inh	INS promoter inh cell count	HSV replic up	HSV replic up primary fold	PKD1 kinase inh	GALR2 ag
O=C(CSc1ncn[nH]1)N1N=C(c2ccc(Cl)cc2)CC1c1ccco1 (configuration not stated)	93	44	109	i	1.1	5	/
CSc1nc(Oc2ccc(=O)[nH]n2)nc(N(C)C)n1	100	29	102	i	1.1	6	-0.1
COc1ccc(-c2cc(-c3ccccc3)n[nH]2)c(O)c1	98	33	74	i	1	3	/
COc1ccc(S(=O)(=O)Cc2ccc(C(=O)NCc3ccco3)o2)cc1	104	/	/	i	0.74	-1	-1.5
Cc1cc(NC(=O)CNC(=O)C2CCCCC2)no1	100	/	/	i	1.1	-8	-1.5
OCCCCCNc1ncnc2ccccc12	78	-8	98	i	1	-1	-2.5
Cc1c(NC(=O)C(C)OC(=O)c2ccc(Br)o2)c(=O)n(-c2ccccc2)n1C (configuration not stated)	102	/	/	i	0.84	0	/
COc1cc(NC(=O)c2ccc(C)c([N+](=O)[O-])c2)ccc1NC(=O)c1ccco1	100	-50	116	i	0.93	4	/
COC(=O)c1sccc1NC(=O)c1c(-c2ccccc2)noc1C	105	/	/	i	1.1	-22	-0.2
CCC(c1nnc(SCC(=O)N2CC3(C)CC2CC(C)(C)C3)o1)N(C)C (configuration not stated)	94	/	/	i	0.78	-5	-3.2
CC(=O)n1c2ccccc2c2c1c1ccccc1n2C	103	43	105	i	0.83	-2	-0.3
O=C(c1ccc2ccccc2c1)C1CCCN(C(=O)CN2C(=O)CSC2=O)C1 (configuration not stated)	103	/	/	i	1.1	1	/
Cc1cccc(C)c1N1CCN(c2nc(N(C)C)oc(=O)c2C#N)CC1	100	-20	99	i	0.96	0	-2.7
CCCCCCCCCCCCCCCCn1cc[n+](CC(C)=O)c1	98	-31	82	i	0.68	-2	/
CCOc1ccccc1N1CCN(CC(=O)c2c(N)n(C)c(=O)n(C)c2=O)CC1	98	/	/	i	0.97	-4	/
CCCCOP(=O)(c1ccc(N(C)C)cc1)C(O)c1cccnc1 (configuration not stated)	104	33	112	i	1.3	1	-0.5
Cc1cnc(C(=O)Nc2ccc(S(=O)(=O)NCC(C)C)cc2)cn1	100	/	/	i	0.93	3	/
Cc1cc(N2CCCC2)nc2ccccc12	104	/	/	i	0.7	-1	/
COc1ccc(C2C(C#N)=C(N)Oc3n[nH]c(C)c32)cc1CSc1ccccn1 (configuration not stated)	66	10	76	i	1.1	-2	-2.0
Cc1ccc(O)c(NC(=O)c2cccc(S(=O)(=O)N3CCCCC3)c2)c1	97	-8	135	i	0.99	0	-0.9
COCCn1nnnc1C(c1ccccc1OC)N1CCN(c2ccccc2F)CC1 (configuration not stated)	63	-16	83	i	0.84	0	-3.2
C/C(=N/NC(=O)CNC(=O)c1cccs1)c1ccco1	104	/	/	i	1.1	/	/
CC(=O)N1N=C(c2ccc(C)cc2)OC1c1ccc(C(C)C)cc1 (configuration not stated)	103	-46	203	i	0.86	-1	-1.7
CCCCNC(=O)CCn1c(=S)[nH]c2cc3c(cc2c1=O)OCO3	97	-32	84	i	1	-3	-1.9
CCC1CCCCN1C1Sc2ccc(C(=O)OC)cc2NC1=O (configuration not stated)	104	/	/	i	0.95	-13	-0.7
COc1ccc(C(=O)OCC(=O)N(C)C2CCS(=O)(=O)C2)cc1S(=O)(=O)N1CCCc2ccccc21 (configuration not stated)	89	0	98	i	0.99	-4	/
O=C(N/N=C/c1ccc(Cl)cc1)c1sccc1OCc1ccc(F)cc1	102	/	/	i	0.96	-2	3.9
FC(F)(F)c1cc(Cl)c2nc(-c3ccccc3)cn2c1	104	37	121	i	0.98	-5	-1.0
O=C1COc2ccc(C(=O)CSc3nnc(Cc4cccs4)n3-c3ccccc3)cc2N1	113	71*	66*	i	0.96	-2	-1.5
O=C(C(=O)N1CCN(C(=O)c2ccco2)CC1)c1c[nH]c2ccccc12	100	47	122	i	0.91	-4	/
COc1ccc(-c2cnc3c(c2)CCC3(C#N)C#N)cc1	103	-10	51	i	0.66	6	0.6
O=c1c2cn[nH]c2[nH]c(=S)n1-c1cccc(Cl)c1	179	28	127	i	1	-14	-1.2
Cc1cc(=O)[nH]c(N/N=C/c2c(C)oc3ccccc23)n1	102	/	/	i	0.77	-2	/
Cc1nnc(NC(=O)CCSc2ccccc2)s1	100	20	143	i	1.2	4	-2.5
Cc1ccc(S(=O)(=O)NCC(c2cccnc2)N(C)C)cc1 (configuration not stated)	103	-9	154	i	0.83	-2	-1.6
O=C(C1CCN(S(=O)(=O)N2CCOCC2)CC1)N1CCN(Cc2ccc3c(c2)OCO3)CC1	106	-14	149	i	0.99	-5	1.0
O=C(NCc1ccco1)C(=S)N1CCCC1	100	/	/	i	0.93	-8	/
O=C(COC(=O)c1cc(S(=O)(=O)N2CCCCC2)ccc1N1CCOCC1)NCCc1ccc(F)cc1	121	/	/	i	0.87	-5	/
CCOC(=O)c1ccc(NC(=S)N(CCCN2CCN(CC)CC2)Cc2ccco2)cc1	93	/	/	i	0.84	2	/
Cc1ccc(OCC(=O)Nc2ccc3c(c2)OCO3)c(C)c1	101	/	/	i	1.1	-4	/
Cc1ccc(CNC(=S)Nc2ccc(OC(F)F)cc2C)cc1	100	/	/	i	1	6	0.3
O=C(NC1CCCCCCC1)C1CCC(CNc2c(N3CCCC3)c(=O)c2=O)CC1 (configuration not stated)	109	/	/	i	0.89	5	-0.8
N#C/C(=C/c1cn(-c2ccccc2)nc1-c1cccc(OCc2ccc(F)cc2)c1)C(=O)NCCCn1ccnc1	101	-32	155	i	0.87	-4	2.0
Cc1cccc(N/C(N)=N/c2nc(C)cc(=O)[nH]2)c1	98	-24	82	i	1.2	4	/
COc1ccc(C2=[N+]([O-])C(C)(C)C(c3ccccc3)=N2)cc1	102	/	/	i	0.9	7	/
CCN(CCn1cccn1)Cc1cn[nH]c1-c1ccc(-c2ccccc2)cc1	118	/	/	i	0.85	-3	/
Cc1ccc(S(=O)(=O)NCC2CCC(C(=O)NCCCN3CCOCC3)CC2)cc1 (configuration not stated)	104	20	106	i	0.87	-3	-2.1
COc1ccc2c(Cl)c(C(=O)NCc3ccco3)sc2c1	103	-23	104	i	1.2	-1	0.0
Cc1cc(C)cc(OCC(=O)OCC(=O)c2ccc3c(c2)NC(=O)CO3)c1	99	/	/	i	0.85	-8	-3.2
Cc1nc2ccccn2c1P(=Nc1ccccc1)(N(C)C)N(C)C	100	/	/	i	0.63	8	0.0
O=C(COC(=O)CNS(=O)(=O)c1ccccc1)NC12CC3CC(CC(C3)C1)C2	101	/	/	i	0.98	-3	/
CCN(CC)C(=O)COc1ccc(Br)cc1Cl	102	3	214	i	0.86	4	-4.0
COc1ccc(OCC(=O)Nc2ccccc2C(=O)N2CCOCC2)cc1	104	-200	128	i	0.93	2	/
Cc1ccn2cc(-c3ccc(Br)cc3)nc2c1	79	/	/	i	1	/	/
CN(C(=O)c1ccncc1)c1nnc(-c2cccnc2)s1	114	19	83	/	/	-14	-0.4
Nc1nonc1-n1nnc(C(=O)O)c1-c1cccs1	94	17	79	i	0.93	-1	0.4
O=C(Nc1nccs1)C(c1ccccc1)N1CCCC1 (configuration not stated)	100	/	/	i	0.89	-8	/
CC(C)CCN(CCC(C)C)C/C(O)=C(\C#N)c1nc(-c2ccccc2)cs1	133	-30	118	i	1.1	5	-2.4
O=C(COC(=O)/C=C/c1cccc(C(F)(F)F)c1)NCc1ccc(F)cc1	95	-33	95	i	0.96	-7	-0.7
COCCNC(=S)N1CCN(c2nc3ccccc3s2)CC1	106	22	146	i	0.93	-4	/

Results in HSV replic up primary fold and PKD1 kinase inh, for some of the entries so far:
Molecule,HSV replic up primary fold,PKD1 kinase inh
N#C/C(=C/c1cn(-c2ccccc2)nc1-c1cccc(OCc2ccc(F)cc2)c1)C(=O)NCCCn1ccnc1,0.87,-4
Cc1cccc(N/C(N)=N/c2nc(C)cc(=O)[nH]2)c1,1.2,4

Going on with the list:
SMILES	RGS16-Gao	INS promoter inh	INS promoter inh cell count	HSV replic up	HSV replic up primary fold	PKD1 kinase inh	GALR2 ag
COc1ccc(-c2cc(C(F)(F)F)n3nc(C(=O)Nc4cc(C)on4)cc3n2)cc1OC	105	-18	47	/	/	10	-2.2
CC(C)(C)n1nc2c(c1NC(=O)COc1ccccc1F)CS(=O)(=O)C2	113	/	/	i	0.93	3	/
Cc1ccc(N2C(N)=C(C#N)C(c3cccnc3)C3=C2CCCC3=O)cc1 (configuration not stated)	100	/	/	i	0.93	-6	-1.1
CCc1cc(-c2[nH]ncc2-c2nc3ccccc3n2C)c(O)cc1O	99	/	/	i	0.82	/	/
O=C1NCN(CCO)CN1	103	/	/	i	0.86	/	/
Cc1cc(C)nc(NCC(O)CNc2ccccc2Cl)n1 (configuration not stated)	115	22	107	i	0.91	6	-1.3
NS(=O)(=O)c1ccc(CCNC(=O)CSc2nc3ccccc3c(=O)n2CCN2CCOCC2)cc1	96	43	125	i	0.86	1	/
CCOc1ccc(C(=O)Nc2cc(-c3nc4ccccc4[nH]3)ccc2C)cc1[N+](=O)[O-]	92	7	76	i	0.84	0	1.3
COc1ccc(C(=O)C[N+]2(C)CCOCC2)cc1	98	-52	68	i	1.2	-1	-2.3
CC(C)C(=O)NC(=S)NCC(=O)c1ccccc1	105	33	66	/	/	-19	-0.2
CC(=O)NC(Cc1ccccc1F)C(=O)NC1CCN(c2ncccc2[N+](=O)[O-])CC1 (configuration not stated)	103	/	/	i	0.89	-2	/
Cc1ccc(OCC(=O)NC(=S)Nc2cccc(C)n2)cc1	127	39	79	i	1.1	3	2.2
COC(=O)C1C(=O)CC(C)(O)C(C(=O)OC)C1c1ccc2c(c1)OCO2 (configuration not stated)	160	/	/	i	0.99	-4	-4.3
C=CCn1c(COc2cccc(C)c2)nnc1SCC(=O)c1c[nH]c2c(CC)cccc12	94	-106	125	i	0.89	9	-0.8
Cc1cc(C(F)(F)F)nc(SCC(=O)Nc2ccccc2)n1	101	-376	49	i	1.1	-4	-3.0
CCCOc1ccc(C2c3c(oc4cc(C)c(C)cc4c3=O)C(=O)N2CCCN2CCOCC2)cc1 (configuration not stated)	103	/	/	i	1	-2	-0.3
Cc1cccc(/C(N)=N/OC(=O)c2ccc(F)cc2)c1	100	-23	116	i	0.99	-3	-2.3
O=C(CN1CCN(S(=O)(=O)c2cc(Cl)ccc2Cl)CC1)Nc1ccc2c(c1)OCCO2	106	/	/	i	0.82	1	-1.0

Among those listed so far, these have an NH in an aromatic ring.
SMILES	RGS16-Gao	INS promoter inh	INS promoter inh cell count	HSV replic up	HSV replic up primary fold	PKD1 kinase inh	GALR2 ag
O=C(CSc1ncn[nH]1)N1N=C(c2ccc(Cl)cc2)CC1c1ccco1 (configuration not stated)	93	44	109	i	1.1	5	/
CSc1nc(Oc2ccc(=O)[nH]n2)nc(N(C)C)n1	100	29	102	i	1.1	6	-0.1
COc1ccc(-c2cc(-c3ccccc3)n[nH]2)c(O)c1	98	33	74	i	1	3	/
COc1ccc(C2C(C#N)=C(N)Oc3n[nH]c(C)c32)cc1CSc1ccccn1 (configuration not stated)	66	10	76	i	1.1	-2	-2.0
CCCCNC(=O)CCn1c(=S)[nH]c2cc3c(cc2c1=O)OCO3	97	-32	84	i	1	-3	-1.9
O=C(C(=O)N1CCN(C(=O)c2ccco2)CC1)c1c[nH]c2ccccc12	100	47	122	i	0.91	-4	/
O=c1c2cn[nH]c2[nH]c(=S)n1-c1cccc(Cl)c1	179	28	127	i	1	-14	-1.2
Cc1cc(=O)[nH]c(N/N=C/c2c(C)oc3ccccc23)n1	102	/	/	i	0.77	-2	/
Cc1cccc(N/C(N)=N/c2nc(C)cc(=O)[nH]2)c1	98	-24	82	i	1.2	4	/
CCN(CCn1cccn1)Cc1cn[nH]c1-c1ccc(-c2ccccc2)cc1	118	/	/	i	0.85	-3	/
CCc1cc(-c2[nH]ncc2-c2nc3ccccc3n2C)c(O)cc1O	99	/	/	i	0.82	/	/
CCOc1ccc(C(=O)Nc2cc(-c3nc4ccccc4[nH]3)ccc2C)cc1[N+](=O)[O-]	92	7	76	i	0.84	0	1.3
C=CCn1c(COc2cccc(C)c2)nnc1SCC(=O)c1c[nH]c2c(CC)cccc12	94	-106	125	i	0.89	9	-0.8

Screening data (PubChem)
